HSV replic up – enhancers of HSV replication in host cells, fold increase, host cell viability; HSV replication augmentation in cells; maximum fold increase; 0.005% of 220,000 active;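 active means peak rise of 1.5-fold or more in the series; inconclusive means self-fluorescent or not available for retest; tested in PC3 cells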;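 further: first round at 10 µM; read as green reporter fluorescence; hits show the peak of a series up to 25 µM; 1 = signal of infected wells without compound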
Insulin prom inh – inhibitors of insulin promoter-driven GFP, primary screen, imaging, TRM-6 cells (human fetal islet line), eGFP reporter, cell count; reporter expression induced with tamoxifen; inhibition, % at 2 µM; 0.9% of 130,000 active;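 active means inhibition above the mean plus 3 SD, with well images judged a real hit on visual review, cut at about 60% in these data, passing the limit was not always enough; inconclusive means inhibition over the cutoff but images rejected on review; inactive means inhibition not above the cutoff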
GALR2 agonist – GALR2 receptor agonists, primary screen, cell-based. 0.48% of 140,000 active. Galanin receptor type 2 (Homo sapiens), O43603. GALR2-expressing cells, agonist activation read-out. activation, %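 (tested at 5 µM)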;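 active means above mean plus 3 SD of all compounds, about 5% in these data, not always enough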;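 further: 0% = vehicle buffer wells and 100% = reference agonist at full effect; tested in CHO reporter cells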
RGS16-Gao – modulators of RGS16 binding to Galphao, primary screen, biochemical, human proteins, multiplexed bead flow cytometry; Regulator of G-protein signaling 16 (Homo sapiens) + Guanine nucleotide-binding protein …; bead-based flow cytometry RGS16-Galphao binding, fluorescence; actives lie on both sides; binding response (% of control), % at 10 µM; 0.38% of 220,000 active; AID 1441, 2008;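 active means below 25% or above 175%, edge rows of some plates excepted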;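 further: Galphao activated by GDP with aluminum fluoride before binding; 100% = wells without compound and 0% = beads without RGS; some results beyond the cut were filed as inactive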
PKD1 kinase inh – inhibitors of human PKD1 kinase, biochemical, fluorescence polarization | PKD1 kinase fluorescence polarization assay | 0.056% of 200,000 active | AID 797, 2007 | inhibition, %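 (about 10 µM by stock and volumes)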 | Serine/threonine-protein kinase D1 (Homo sapiens), Q15139;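 active means inhibition of 50% or more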;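 further: controls were vehicle for no effect and a reference inhibitor for full effect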
Target sequence (Q15139 whole entry, looked up): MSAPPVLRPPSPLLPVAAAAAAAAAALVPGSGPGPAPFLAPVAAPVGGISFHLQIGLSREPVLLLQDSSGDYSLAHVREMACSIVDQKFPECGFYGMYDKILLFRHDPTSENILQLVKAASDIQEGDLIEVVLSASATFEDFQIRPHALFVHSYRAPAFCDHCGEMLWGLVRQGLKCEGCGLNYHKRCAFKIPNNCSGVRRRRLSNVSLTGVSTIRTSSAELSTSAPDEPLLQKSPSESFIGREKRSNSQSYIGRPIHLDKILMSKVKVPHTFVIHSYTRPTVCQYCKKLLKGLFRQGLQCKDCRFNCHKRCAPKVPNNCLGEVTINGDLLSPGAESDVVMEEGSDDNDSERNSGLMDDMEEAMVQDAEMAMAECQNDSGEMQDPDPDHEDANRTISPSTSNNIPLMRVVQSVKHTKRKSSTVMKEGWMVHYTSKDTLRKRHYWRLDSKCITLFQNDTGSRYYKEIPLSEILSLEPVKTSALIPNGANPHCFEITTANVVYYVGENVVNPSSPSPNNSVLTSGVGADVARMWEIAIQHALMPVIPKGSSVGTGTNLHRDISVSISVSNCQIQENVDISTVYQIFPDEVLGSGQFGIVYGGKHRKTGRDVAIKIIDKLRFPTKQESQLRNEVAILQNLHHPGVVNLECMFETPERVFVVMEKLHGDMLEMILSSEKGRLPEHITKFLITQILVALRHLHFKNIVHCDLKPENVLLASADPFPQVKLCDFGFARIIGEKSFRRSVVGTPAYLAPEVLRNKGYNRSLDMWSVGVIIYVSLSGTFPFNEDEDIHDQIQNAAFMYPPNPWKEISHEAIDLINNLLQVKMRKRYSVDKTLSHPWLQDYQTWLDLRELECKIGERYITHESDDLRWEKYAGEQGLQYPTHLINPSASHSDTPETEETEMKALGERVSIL
Insulin prom inh cell count – also measured in Insulin prom inh; calls as there; normalized cell count, %; measured here: cell count, toxicity; reference of the scale not given here;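 cells exposed to compound for 48 h; stained nuclei by imaging scaled within each plate; lower means fewer cells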
HSV replic up primary fold – recorded beside HSV replic up, whose call it bears; fold increase; compound at 10 µM; measured here: primary screen fold increase 10 uM; tested in PC3 cells;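 GFP signal in the first replicate; 1 = infected wells without compound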
Numbers without * were called inactive; i = inactive; ? = inconclusive; . = no result given.

Below each SMILES – HSV replic up, HSV replic up primary fold, Insulin prom inh, Insulin prom inh cell count, GALR2 agonist, RGS16-Gao, PKD1 kinase inh
> O=C(Nc1ccc(S(=O)(=O)NCc2ccccc2)cc1)Nc1ccc2c(c1)OCO2
 : i, 1.12, 31.0, 130.5, -0.8, 113.9, -5.0
> Cn1cccc1/C=N/NC(N)=S
 : i, 1.01, ., ., ., 96.5, -8.5
> Oc1c(C(c2ccco2)N2CCOCC2)sc2ncnn12 (centres undefined)
 : i, 0.99, ., ., -2.0, 104.6, -4.5
> O=[N+]([O-])c1ccc(N=NNc2ccccc2)cc1
 : i, 1.06, 64.3, 139.6, ., 99.3, 5.0
> CCn1ccnc1CN(C)Cc1cn(-c2cccc(C)c2)nc1-c1cccc(F)c1
 : i, 0.96, ., ., ., 98.2, -5.9
> Cc1nc(Oc2ccc(Cl)cc2)c2oc3ccccc3c2n1
 : i, 1.05, 37.1, 70.8, -1.4, 104.4, -12.5
> CCNC(=O)c1ccc(C2SCC(=O)N2CCc2ccccc2)cc1 (centres undefined)
 : i, 1.1, -23.1, 96.0, -1.6, 67.7, -1.4
> CCOc1ccc(C(=O)Nn2cnnc2)cc1OCC
 : i, 0.95, ., ., ., 95.1, .
> FC(F)(F)c1nnc2ccc(N3CCN(c4ccccc4)CC3)nn12
 : i, 1.01, -35.5, 207.3, -2.3, 106.9, 2.5
> CN(c1ccccc1)C1CCCCC1NS(=O)(=O)c1ccc(Cl)cc1 (centres undefined)
 : i, 0.98, 26.7, 108.5, 1.9, 104.3, 3.8
> CC(NC(=O)Nc1ccccc1)C(c1ccccc1)N1CCOCC1 (centres undefined)
 : i, 1.1, 11.5, 168.7, -0.4, 98.1, -7.4
> Cc1nn(C)c(Cl)c1CN1CCCC(CO)(Cc2cccc(Cl)c2)C1 (centres undefined)
 : i, 1.02, 0.0, 86.6, ., 113.4, -2.9
> CCOc1cc(C)c(Cl)cc1S(=O)(=O)NCCOC
 : i, 0.91, 14.3, 58.3, -1.2, 106.3, -4.0
> O=C(NC1CCS(=O)(=O)C1)C1C2CC3CC(C2)CC1C3 (centres undefined)
 : i, 0.84, ., ., ., 100.9, -5.8
> COc1cccc(CN(C)C(=O)CCc2nnc(-c3ccsc3)o2)c1
 : i, 0.98, 31.2, 112.7, ., 104.6, 1.9
> COc1ccccc1N1CCN(C(=O)c2c(-c3ccccc3)noc2C)CC1
 : i, 0.78, ., ., -1.0, 79.3, -7.9
> Oc1ccc(-c2cn3c(n2)SCC3)cc1
 : i, 1.04, -12.9, 100.0, -0.3, 101.6, -5.7
> OCCCN=c1cc(-c2ccccc2)oc2ccc(Cl)cc12
 : i, 0.56, 21.4, 72.3, -2.4, 98.2, -3.1
> O=C(CSc1ncccn1)NC(=O)NCc1ccccc1
 : i, 0.9, -61.3, 100.0, -1.8, 61.1, 6.7
> Cc1cc(C(=O)COC(=O)c2ccncc2)c(C)n1CCc1ccc(F)cc1
 : i, 1.06, ., ., ., 103.9, -3.5
> CC(C)OC(=O)CSc1nnc(-c2cnccn2)n1C
 : i, 0.94, -43.8, 134.2, -1.4, 101.3, -9.7
> COc1ccccc1N1CCN(C(CNS(C)(=O)=O)c2cccnc2)CC1 (centres undefined)
 : i, 1.02, -44.4, 31.3, ., 115.9, 1.2
> Nc1nc(N)c2ncc(C(=O)CCc3ccccc3)nc2n1
 : i, 1.01, ., ., ., 97.1, -0.3
> CN1CCN(C(=S)c2ccc(N(C)C)cc2)CC1
 : i, 0.87, 44.2, 113.4, -1.1, 84.0, -1.1
> Cc1ccc(C=C2C(=O)c3ccccc3C2=O)s1
 : i, 0.94, -321.7, 94.7, -2.0, 100.6, -0.2
> COc1ccc(S(=O)(=O)NCCc2ccccc2)cc1
 : i, 0.94, ., ., -1.7, 114.4, 4.4
> CCOC(=O)C(NC(C)=O)C(OC(C)=O)c1cccc(N(CCO)CCO)c1 (centres undefined)
 : i, 0.84, -9.1, 107.9, -2.4, 100.0, 7.5
> CCC(Oc1ccccc1)C(=O)Nc1nnc(C)s1 (centres undefined)
 : i, 1.12, -61.1, 93.2, -1.2, 98.8, -0.1
> O=C1CC(Nc2ccc3ccccc3c2)C(=O)N1Cc1ccccc1 (centres undefined)
 : i, 0.82, -24.1, 110.5, -0.5, 103.6, -2.2
> COc1ccc(N(CC(=O)NCCC2=CCCCC2)S(=O)(=O)c2ccccc2)cc1OC
 : i, 0.95, ., ., ., 101.3, -1.8
> Cc1ccc(C(=O)NC2CC3CCCC(C2)N3C(=S)NCc2ccco2)cc1 (centres undefined)
 : i, 1.02, ., ., ., 107.4, 0.5
> CCOC(=O)N1CCN(C(=O)c2ccc(Cn3c(=S)[nH]c4cc(OCC)c(OCC)cc4c3=O)cc2)CC1
 : i, 0.99, ., ., ., 102.9, 2.6
> CC(C)(C)c1cc(=O)n2c(C#N)c(C#N)nc2[nH]1
 : i, 0.92, -9.1, 103.6, -1.0, 102.5, -2.2
> CCCn1c(=O)[nH]c(=O)c2c1nc(-c1ccc(OC)c(Br)c1)n2CCOC
 : i, 0.82, -40.0, 113.8, ., 94.5, -4.1
> CC(C)c1ccc(NC(=O)COc2ccc(S(=O)(=O)N3CCOCC3)cc2)cc1
 : i, 1.02, -24.3, 209.9, -0.2, 34.4, -1.8
> COCC(=O)N(C)c1nnc(-c2cnc(C)cn2)s1
 : i, 0.997, ., ., -0.9, 99.2, 8.8
> COc1ccc(CN(Cc2ccc(C(=O)O)cc2)C(=S)Nc2ccccc2Cl)cc1OC
 : i, 0.96, ., ., ., 104.4, -4.9
> COc1ccc(C(=O)c2sc3nc(-c4ccccc4)ccc3c2N)cc1
 : ?, ., -207.4, 147.9, -1.9, 70.0, 3.0
> CCCOc1ccc(CC2CCC(=O)NC2=O)cc1 (centres undefined)
 : i, 0.91, -180.0, 107.1, -1.3, 100.6, -1.4
> Cc1cc(C)c2nc(/N=C(\N)NC(=O)Nc3ccccc3)nc(C)c2c1
 : i, 0.69, -5.4, 161.7, -0.4, 97.6, -6.0
> CC(=O)Nc1ccc(S(=O)(=O)Nc2nc3ccccc3nc2Nc2ccccc2)cc1
 : i, 1.04, 50.0, 116.0, -1.0, 99.9, 2.5
> C/C(=N\Nc1ccc([N+](=O)[O-])cc1[N+](=O)[O-])C(C)(C)C(C(=O)O)C(=O)O
 : ., ., ., ., -1.8, 115.0, -0.9
> CC1CCCCC1NC(=O)C1CCN(S(=O)(=O)c2ccc3c(c2)CCC(=O)N3)CC1 (centres undefined)
 : i, 0.98, ., ., -1.9, 134.6, 14.5
> COc1ccccc1NS(=O)(=O)c1cc(NC(=O)c2cccs2)ccc1N1CCOCC1
 : i, 0.77, ., ., ., 106.7, .
> Cc1cccc(C(=O)NC(=S)NNC(=O)c2ccc(Cl)cc2)c1
 : i, 0.97, 25.5, 83.0, 0.9, 105.0, 4.5
> CCOC(=O)c1cc(-c2c(Cl)cccc2Cl)no1
 : i, 1.06, ., ., ., 98.3, .
> CCCOc1ccc(C(=O)ON=C2CCN(C)CC2)cc1
 : i, 1.02, 21.4, 90.7, ., 100.0, -7.6
> COc1cc(NC(=S)N(C)CCC#N)c(OC)cc1Cl
 : i, 0.91, ., ., ., 93.2, .
> O=C(NCN1CCCCC1)c1cnccn1
 : i, 1.01, -65.8, 118.8, 0.4, 98.9, -5.1
> COc1cc(Br)cc(CN2CCN(C=O)CC2)c1O
 : i, 1.16, -40.0, 86.6, -0.7, 100.1, 5.8
> O/N=C/c1ccc2cccc(O)c2n1
 : i, 0.97, ., ., ., 95.8, .
> Cc1ccc2c(c1)C(=O)C(=O)N2CC(=O)Nc1ccc(N2CCOCC2)cc1
 : i, 1, 0.0, 98.3, ., 101.1, 8.6
> CCCc1nc2c([nH]1)C(c1cccnc1)C(C#N)=C(N)O2 (centres undefined)
 : i, 0.94, 6.7, 146.7, -0.3, 105.8, 5.4
> CC(=O)Nc1ccc(C(=O)CSc2nnc3scc(-c4ccccc4)n23)cc1
 : i, 0.84, ., ., 0.2, 80.2, -6.9
> CCCCCOc1ccc(NC(=O)C2OC3OC(C)(C)OC3C3OC(C)(C)OC23)cc1 (centres undefined)
 : i, 0.99, -6.7, 115.0, -0.8, 97.4, 5.3
> Cc1ccc2nc(N3CCN(C)CC3)c(C#N)cc2c1
 : i, 0.85, ., ., -1.6, 123.1, -8.3
> COCCNC(=O)CSc1nc2ccc(N3CCOCC3)cc2c(=O)n1Cc1ccc(OC)cc1
 : i, 0.78, 0.0, 95.4, 1.4, 100.6, -6.1
> O=C(CN1C(=O)CCC1=O)Nc1nc(-c2ccccn2)cs1
 : i, 0.86, ., ., -2.0, 120.3, -4.8
> O=C(CCn1c(=O)[nH]c2ccccc2c1=O)NCCSCc1ccccc1
 : i, 0.94, ., ., ., 98.3, -2.1
> S=C1NC[C@H](CC2CCCCC2)N1CC1CCCCC1
 : i, 1.1, ., ., ., 94.5, -5.1

Continuation.
Below each SMILES – HSV replic up, HSV replic up primary fold, Insulin prom inh, Insulin prom inh cell count, GALR2 agonist, RGS16-Gao, PKD1 kinase inh
> CC1CCN(c2c(NCC3CCC(C(=O)NC4CCCCCC4)CC3)c(=O)c2=O)CC1 (centres undefined)
 : i, 0.98, ., ., ., 99.8, .
> O=C(C/C(=N/O)c1ccccc1O)C(F)F
 : i, 0.92, ., ., -4.0, 102.7, -14.4
> CNCC(O)Cn1c(C(F)(F)F)nc2ccccc21 (centres undefined)
 : i, 0.923, 55.6, 99.8, -2.2, 101.3, -6.5
> CN(Cc1ccccc1)Cc1nc2c([nH]1)c(=O)[nH]c(=O)n2C
 : i, 0.77, ., ., -1.9, 102.3, -7.4
> Cc1ccc(C(=O)Cn2ncsc2=N)cc1
 : i, 1.02, 2.8, 80.9, -0.5, 100.2, -0.2
> Nc1ncnc(Nc2cc(Cl)cc(Cl)c2)c1[N+](=O)[O-]
 : i, 0.9, 0.0, 141.9, 0.2, 102.5, -4.2
> COc1cc2c(cc1OC)-c1cc(NC3CC3)nc(=O)n1CC2
 : i, 0.98, ., ., -0.7, 116.7, -12.4
> N#C/C(=C(/O)COC(=O)CCc1ccc(S(=O)(=O)N2CCOCC2)cc1)c1nc2ccccc2[nH]1
 : i, 1.01, ., ., -0.8, 93.6, 3.0
> C/C(=N\NC(=O)c1ccc(N/N=C(\C)c2ccncc2)cc1)c1ccncc1
 : i, 0.66, ., ., ., 102.8, 4.2
> Cc1cccc(NC(=O)C2CC(=O)OC23CCCC3)c1 (centres undefined)
 : i, 1.04, 30.2, 75.4, -0.5, 95.4, -5.8
> CCc1nc(Nc2ccccc2)c2oc3ccccc3c2n1
 : i, 0.71, -74.2, 187.8, -1.5, 99.8, -7.9
> CC(=O)N(C1CC(C)C(C#N)(C#N)C1(C#N)C#N)N(C)C (centres undefined)
 : i, 0.96, ., ., ., 92.6, 3.3
> CCN(CC)CCCNC(=O)CNC(=S)N(CCCN1CCOCC1)Cc1cccs1
 : i, 1.04, ., ., ., 98.0, -4.7
> CCc1cccc(C)c1NC(=O)C(c1ccc(O)cc1)N1CCC1=O (centres undefined)
 : i, 0.92, 26.7, 91.5, -3.0, 103.4, 0.1
> Fc1ccccc1N1CCN(c2ncnc3nc[nH]c23)CC1
 : i, 0.92, ., ., ., 103.0, .
> CC(=O)NC1C(Oc2cccc(C)c2)OC2COC(c3ccco3)OC2C1O (centres undefined)
 : i, 0.82, 32.4, 127.8, -1.4, 108.5, -4.7
> CC(=O)NC(=S)NNC(=O)C(c1ccccc1)c1ccccc1
 : i, 0.94, 45.5, 72.7, ., 109.7, 1.6

Whole records, quoted from the list. Screens in order: HSV replic up | HSV replic up primary fold | Insulin prom inh | Insulin prom inh cell count | GALR2 agonist | RGS16-Gao | PKD1 kinase inh
Record of `CC(NC(=O)Nc1ccccc1)C(c1ccccc1)N1CCOCC1` (centres undefined) = i | 1.1 | 11.5 | 168.7 | -0.4 | 98.1 | -7.4
Record of `COc1ccccc1NS(=O)(=O)c1cc(NC(=O)c2cccs2)ccc1N1CCOCC1` = i | 0.77 | . | . | . | 106.7 | .

Compound activity deposited in PubChem by several laboratories.
